Bioassay records (PubChem)
NPYLR7 agonist: mosquito NPYLR7 agonism; 270,000 tested, 0.15% active; activation, % at 10 µM; AID 1259423; HEK293T NPYLR7/Galpha15, GCaMP6s calcium fluorescence; in the data active means activation above about 40%;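 further: 0% = vehicle and 100% = reference agonist at the receptor; some compounds past the cut are filed as inactive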
NPYLR7 agonist max-min: second read-out of NPYLR7 agonist, no call of its own (marks repeat the call); activation, %; measured here: Max-Min RFU normalised activation; some inactives read as strong as hits;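 span of the calcium signal over five minutes; 0% = vehicle and 100% = native peptide agonist; compound fluorescence can raise it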
* marks the source's active call; other numbers are inactive results; & = joins results of further samples.

SMILES	NPYLR7 agonist	NPYLR7 agonist max-min
CCC(C)C(NS(=O)(=O)c1ccc(C)cc1)C(=O)Nc1nnc(-c2ccc(N(C)C)cc2)s1 (stereo not drawn)	7	13
CCc1nc2ccc(C(=O)NC(C)(C)C)cn2c1N(C)Cc1ccc(OC)cc1	-10	-16
O=C(CN1CCN(C(=O)CN2CCOCC2)CC1)Nc1cccc([N+](=O)[O-])c1	-3	-3
COc1ccc(C(C)=O)cc1Cn1c(C)c(C(=O)NC2CCCC2)sc1=O	-11	0
CCN(CC)C(=O)c1cc(-c2ccccc2OC)nc2cc(C(C)(C)C)nn12	-12	-10
COc1ccc(CCn2ccc3c(nnc4ccnn43)c2=O)cc1	20	15
O=C1C(=O)N(CCN2CCOCC2)C(c2ccncc2)C1=C(O)c1ccc(Cl)cc1 (stereo not drawn)	1	6
CC#C[C@]1(O)CC[C@H]2[C@@H]3CCC4=CC(=O)CCC4=C3[C@@H](c3ccc(N(C)C)cc3)C[C@@]21C	0&-2&1	-5&-4&8
O=C(N=c1sccn1Cc1ccccc1)c1c[nH]c2ncccc12	-3	-2
CC(C)(C)N(Cc1ccccc1)C(=O)CCc1ccccc1	-6	-6
CCCc1c(C(=O)N(C)C)cnn1-c1ccc(Cl)c(Cl)c1	24	22
Cc1ccc(CCOC(=O)c2ccc(C#N)cn2)cc1	17	14
COc1ccccc1C(=O)Nc1cccc(-c2nc3cc(C)ccc3o2)c1C	12	19
C=C(C)CNC(=S)NNC(=O)CCn1c2ccccc2c2ccccc21	0	1
O=C1NC(=S)N/C1=C/c1ccc(OC(=O)c2ccc(F)cc2)cc1	3	11
O=C(Nc1ccc(-n2nccn2)cc1)N1CCN2CCCCC2C1 (stereo not drawn)	7	8
CCCCc1[nH]nc2ccnc(-c3ccc(OC)c(OC)c3)c12	3	3
Cc1ccc(F)cc1CC(=O)NC(C)c1nc(C(C)C)no1 (stereo not drawn)	3	0
Cc1ccc(CN(C(=O)[C@@H]2C[C@H]2c2ccccc2)C2CC2)s1	-6	-8
O=C(Nc1ccccc1)C1CCCN(Cn2nnn(C3CCCCC3)c2=S)C1 (stereo not drawn)	4	2
CCOC(=O)c1c(NC(=O)c2ccc(F)cc2)sc2c1Cc1ccccc1-2	5	6
COc1ccc2[nH]c3c(c2c1)CCN(C(=O)c1ccccn1)C3c1ccc(OCc2ccccc2)cc1 (stereo not drawn)	10	-4
CN(C)c1cccc(C(NC(=S)Nc2c(Cl)cccc2Cl)c2ccc(S(C)(=O)=O)cc2)c1 (stereo not drawn)	-9	-17
Cc1ccoc1C(=O)N1CCc2c(nc(-c3cccnc3)[nH]c2=O)C1	7	2
Cc1ccc(N2CCC(NC(=O)NCC(O)c3ccsc3)C2)cc1 (stereo not drawn)	10	7
CC(=O)C(C)n1c(CN2CCCCC2C)nc2c1c(=O)n(C)c(=O)n2C (stereo not drawn)	5	2
CC(C)(C)Nc1c(-c2ccccc2)nc2c(OCc3ccccc3)cccn12	-12	-1
Cc1cccc(CSc2nc(Oc3ccc(Cl)cc3)cc(C(F)(F)F)n2)c1	1	5
Cc1ccc(-n2c(C(C)N(CCC(C)C)C(=O)C3CC3)nc3ccccc3c2=O)c(C)c1 (stereo not drawn)	7	3
CCCS(=O)(=O)N1CCN(c2nc(C)nc(C)c2Cc2ccc(Cl)cc2)CC1	31	32

Nothing new here: an excerpt of the list.
SMILES	NPYLR7 agonist	NPYLR7 agonist max-min
O=C(Nc1ccc(-n2nccn2)cc1)N1CCN2CCCCC2C1 (stereo not drawn)	7	8
CCCCc1[nH]nc2ccnc(-c3ccc(OC)c(OC)c3)c12	3	3
Cc1ccc(F)cc1CC(=O)NC(C)c1nc(C(C)C)no1 (stereo not drawn)	3	0
Cc1ccc(CN(C(=O)[C@@H]2C[C@H]2c2ccccc2)C2CC2)s1	-6	-8
O=C(Nc1ccccc1)C1CCCN(Cn2nnn(C3CCCCC3)c2=S)C1 (stereo not drawn)	4	2
CCOC(=O)c1c(NC(=O)c2ccc(F)cc2)sc2c1Cc1ccccc1-2	5	6

The list goes on.
SMILES	NPYLR7 agonist	NPYLR7 agonist max-min
Cc1cccc(CN2CCC(c3nn(C)c(=O)n3-c3ccccc3)CC2)c1O	7	6
O=C(c1cccs1)N(Cc1cccc(OS(=O)(=O)c2ccc(F)cc2)c1)Cc1ccco1	25	29
O=C(CCC(=O)N1CCN(S(=O)(=O)c2ccc(Cl)cc2)CC1)N1CCOCC1	7	11
COc1cccc(C(=O)N2CCSC2c2ccc(C(C)(C)C)cc2)c1 (stereo not drawn)	1	7
Cc1ccc(OCC(=O)N2CC(C(=O)N3CCN(C)CC3)Oc3ccccc32)cc1C (stereo not drawn)	-1	0
Cc1[nH]nc(SCC(=O)NCC(C)C)c1[N+](=O)[O-]	-3	-4
Cc1ccc(-c2ccc(CCC(=O)NCCC#N)n2-c2ccc(CC#N)cc2)c(C)c1	-2	-6
O=C(O)C1=CCCN(CCON=C(c2ccccc2)c2ccccc2)C1	1	0
Cc1ccc(CNC(=O)Cn2nc(Nc3ccccc3)c(S(=O)(=O)c3ccc(C)cc3)c2N)cc1	9	-1
COc1ccc(CCNC(=O)c2cc(-c3ccc(C)c(C)c3)nn2-c2ccccc2)cc1OC	10	7
Cc1ccc(Cc2nsc(Oc3ccc(CC(=O)NC4CCN(Cc5ccccc5)CC4)cc3)n2)cc1	-9	-15
NC(=O)c1ccc(CN(C(=O)c2ccc(Cl)cc2)C2CC2)cc1	1	1
O=C(Nc1ccc(F)cc1F)c1ccc([N+](=O)[O-])cc1	6	8
COc1ccc(-c2ccc(=O)n(CCCNC(=O)C3CCCCC3)n2)cc1	-3	-6
CCOC(=O)N1CCN(C(=O)CSc2nnc(C)c3cnn(-c4ccc(C)c(C)c4)c23)CC1	-11	-17
CCOc1cccc(-c2cc(C(=O)O)c3[nH]c(C)nc3n2)c1O	0	0
Cc1cc(C)c2sc(N3CCc4ccccc4C3)nc2c1	9	4
CCC(C)N(Cc1ccc(C)cc1C)CC(O)c1ccccc1 (stereo not drawn)	17	16
COc1cc(/C=C\C(=O)NCc2cc(-c3ccccc3)on2)cc(OC)c1OC	0	-2
CCc1nc2ccc(C(=O)NCC3CCCCC3)cn2c1N(CCN(C)C)CC1CC1	-4	-7
Cn1c(N)c(C(=O)CSc2n[nH]c(-c3cccs3)n2)c(=O)n(C)c1=O	-4	-5
O=C1NCC2(CCCN(Cc3csc(-c4ccc(C(F)(F)F)cc4)n3)C2)O1 (stereo not drawn)	3	3
COc1cccc(C(=O)N(CC(=O)Nc2cc(C(C)(C)C)nn2-c2ccc(Cl)c(Cl)c2)C(C)C)c1	-2	5
CC(C(=O)Nc1ccc(OC(F)(F)F)cc1)N(C)Cc1cnn(C)c1 (stereo not drawn)	-1	-3
COc1ccc(CNCc2ccc(-n3ccnc3)cc2)cc1OC	2	-1
Cc1cn2c3c(=O)n(CCCO)c(=O)n(C)c3nc2n1C1CCCCC1	3	0
CCn1cc2nc(OC)c(CNC(=O)c3cc4cccc(C)c4o3)cc2c1O	4	3
Cc1nc2ccc(C(=O)N(C)Cc3ccco3)cn2c1N(C)C=O	4	19
CN(Cc1ccccc1)c1cc(Cl)nc(SCc2cccc(C(=O)N3CC4(C)CC3CC(C)(C)C4)c2)n1 (stereo not drawn)	10	4
COc1cc2c(cc1CN(C)Cc1noc(C)n1)OCCCO2	3	-3

Full records as entered above. Order of values: NPYLR7 agonist	NPYLR7 agonist max-min
Shown for O=C(Nc1ccc(F)cc1F)c1ccc([N+](=O)[O-])cc1 → 6	8
Shown for CC(C)(C)Nc1c(-c2ccccc2)nc2c(OCc3ccccc3)cccn12 → -12	-1
Shown for CCOc1cccc(-c2cc(C(=O)O)c3[nH]c(C)nc3n2)c1O → 0	0
Shown for Cc1ccc(CCOC(=O)c2ccc(C#N)cn2)cc1 → 17	14

3 of these compounds in another layout:
O=C(CCC(=O)N1CCN(S(=O)(=O)c2ccc(Cl)cc2)CC1)N1CCOCC1
  NPYLR7 agonist = 7
  NPYLR7 agonist max-min = 11

COc1cccc(C(=O)N2CCSC2c2ccc(C(C)(C)C)cc2)c1 (stereo not drawn)
  NPYLR7 agonist = 1
  NPYLR7 agonist max-min = 7

Cc1ccc(OCC(=O)N2CC(C(=O)N3CCN(C)CC3)Oc3ccccc32)cc1C (stereo not drawn)
  NPYLR7 agonist = -1
  NPYLR7 agonist max-min = 0

The list goes on.
SMILES	NPYLR7 agonist	NPYLR7 agonist max-min
CC1(C)CC(NC(=O)c2cccn2Cc2cccs2)CC(C)(C)N1	13	10
COCCNC(=O)c1ccccc1N1CCC(NC(=O)c2ccc(Cl)cc2Cl)CC1	1	9
CC1=CC(C)(C)N(C(=O)Nc2ccccc2)c2cc(C)c(C)cc21	1	1
COc1cc(-c2nccc3n[nH]c(C4CC4)c23)ccc1O	0	-1
Cc1nc(CNC(=O)c2cc(CC(C)C)nn2C)cs1	-5	-6
Cn1ncc(NCc2ccc(OCc3cccc(F)c3)cc2)c(Cl)c1=O	3	0
COc1ccccc1C=CC=Nn1c(C)nnc1C	-7	-12
Cc1ccc(C2(O)CCN(Cc3nccn3C(C)C)CC2)nc1	18	10
Cc1cc(Br)ccc1NC(=O)CN(C)Cc1cc(Cl)cc2c1OCOC2	5	2
c1cncc(-c2nc3c(c(NCCc4c[nH]c5ccccc45)n2)CNC3)c1	9	7
CCC(C)C(NC(=O)c1cccc(-c2ncon2)c1)C(N)=O (stereo not drawn)	3	2
CC(C)=CC(=O)NCc1cccc(COC(C)C)c1	-1	-2
Cn1c(C2CC2)nc2c1CCN(CC1(O)CCCCC1)C2	-25	-27
CCOC(=O)CSc1nc2c(-c3ccccc3)c[nH]c2c(=O)n1-c1ccccc1	2	2
COC(=O)c1ccccc1NC(=O)N1CCC(Cc2ccc(-n3cccc3)cc2)CC1	3	14
CCOC(=O)c1cc(-c2ccc(N3CCN(C(=O)Cc4cccs4)CC3)cc2)n(-c2ccccc2C)n1	-6	-6
CC1CCCCN1CCCNC(=O)C(C1CCCC1)N1CCN(C(=O)c2ccc(Cl)cc2Cl)CC1 (stereo not drawn)	-2	-1
NC(=O)C[C@H]1c2cccnc2C(=O)N(Cc2ccccc2)[C@@H]1C(N)=O	3	15
CCOC(=O)c1c(NC(=O)C(C)OC(=O)C2=COCCO2)sc2c1CCCC2 (stereo not drawn)	9	15
COC(=O)c1ccc(CSc2nnc(SCc3ccc(C(=O)OC)o3)s2)o1	-1	-6
Cc1ccsc1CN(Cc1ccc(F)cc1)C(=O)CN(C(=O)c1ccc(Cl)c([N+](=O)[O-])c1)C1CCCCC1	1	11
Cc1nn2c(nc(NC3CCCc4ccccc43)c3ccccc32)c1Cl (stereo not drawn)	6&-3	8&-5
CC(C)c1n[nH]c(=S)n1-c1ccc(Cl)c(Cl)c1	-9	-6
CC(Cn1cccn1)C(=O)N1CCOc2c(O)cc(-c3cccnc3)cc2C1 (stereo not drawn)	1	1
Cc1cc2ncn(CC3CCN(C(=O)c4cnccn4)CC3)c2cc1C	-3	-5
Cc1cc(CN(C)C(=O)c2sc3ncnc(NC[C@H]4C[C@@H]5C=C[C@H]4C5)c3c2C)on1	-2	-6
O=C(NCc1ccccn1)c1cc(NCC2CC2)cc(S(=O)(=O)N2CCCC2)c1	22	11
Cc1cccc(-c2nnc(NC(=O)C(NC(=O)Nc3ccccc3Br)C(C)C)s2)c1 (stereo not drawn)	1	3
CCCCCc1nnc(NC(=O)CCCC)s1	5	5
CC(=O)Nc1ccc(CNC(=O)CN2CCCN(C(=O)C3CC3)CC2)cc1	2	-10
O=C1CCC(C(=O)N2CCCN(C(=O)c3ccco3)CC2)CN1Cc1ccc(Cl)cc1 (stereo not drawn)	22	13
O=S(=O)(c1cccc2nsnc12)N1CCCc2ccccc21	5	1
CCc1nc(C)sc1C(=O)N1C[C@@H]2C3CCC(CC3)[C@@H]2C1	5	2
CN(C)[C@@H]1c2ccccc2C2(CCN(Cc3nn(C)cc3Cl)CC2)[C@H]1O	3	1
CNC(=O)C1CCN(Cc2nc3ccccc3o2)CC1	2	2
O=C(c1cccc(C(F)(F)F)c1)C1CCCN(C(=O)c2sccc2Cl)C1 (stereo not drawn)	17	5
CCCn1c(=O)n(C)c(=O)c2c(=S)nc(C(C)C)[nH]c21	-5	-6
O=C(CCn1cncn1)Nc1ccccc1NC(=O)c1cccs1	3	2
O=C(c1cncc(-c2cc3ccccc3o2)n1)N1CCOCC1	0	-2
CC(=O)NC(C)c1ccc(C(=O)COc2cccc(Cl)c2Cl)cc1 (stereo not drawn)	0	-2
NC1CONC1=O (stereo not drawn)	6	-12
C=CCC(Cc1onc(C)c1I)c1onc(C)c1I (stereo not drawn)	-4	-3
COc1cccc(-c2ccc3c(c2)CCCN3C(C)=O)c1OC	0	7
CCc1nc2n(n1)C(=O)C(C(c1ccc(C(F)(F)F)cc1)N1CCN(CCO)CC1)S2 (stereo not drawn)	-2	-6
CC(=O)c1c(C)[nH]c(C(=O)C(C)OC(=O)c2c(F)cccc2F)c1C (stereo not drawn)	10	4
CCOC(=O)C1=C(C)N=c2sc(=C3C(=O)N(C)c4ccccc43)c(=O)n2C1c1ccccc1OC (stereo not drawn)	2	23
Cc1cccn2c(=O)nc(SCC(=O)c3ccc(Cl)cc3)nc12	6	3
Cc1ccc(-c2cnn3c(NCC(C)C)cc(C)nc23)cc1	2	3
CCCN(CCc1ccccn1)C(=O)c1cc(C)on1	-1	-1
CCN(CC)CCOC(=O)C(c1ccccc1)C1CCCCC1 (stereo not drawn)	5&-10&-2	-9&-18&-3
CCCn1ncc(C(=O)NCc2cnn(-c3ccccc3C)c2)c1C	3	4
COc1ccccc1NC(=O)C(C)Sc1nc(C)cc(N)n1 (stereo not drawn)	2	2
CC1=NN(c2ccccc2)C(=O)/C1=C/c1ccc(Cl)cc1	18	2
CCc1nc2c(OCCc3cccc(OC)c3)cccn2c1N(C)C(=O)c1ccc2c(c1)OCO2	-9	4
COc1ccc(CN2CCCn3cccc3C2c2ccc(C(F)(F)F)cc2)c(OC)c1OC (stereo not drawn)	-3	1
COc1ccc(Oc2c(CN(CC(C)C)CC(O)c3ccccc3)c(-c3ccccc3)nn2C)cc1 (stereo not drawn)	-6	-4
O=C(CN1C(=O)N(c2ccccc2)S(=O)(=O)c2ccccc21)c1ccc(Br)s1	6	3

Some of the compounds tested; the hit share may differ from the screen's.
